# Compound activity from PubChem BioAssay.
# GLA inh pH 4.5 – alpha-galactosidase A (human) inhibition, pH 4.5; P06280; purified enzyme, 4-MU-alpha-Gal fluorescence, pH 4.5; activity change, negative = inhibition, % at 105 µM; 230,000 tested, under 10 active; inconclusive = small, poorly fitted or top-dose-only inhibition, or a rising curve; inactive = flat fitted curve, though single readings scatter; no compound was filed as active;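 also: 0% = full activity with enzyme and -100% = basal without enzyme; dose as in the result columns while the protocol names 77 µM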
# miR-21 reporter – miR-21 reporter, rising signal. AID 2288. 340,000 tested, under 10 active. HeLa miR-21 FLuc reporter, luciferase, 48 h. Potency, µM (top dose mostly 38.3 µM), without a hit: at the top dose reporter change, positive = more light; active = well fitted rising curve with a large enough effect; inconclusive = small, poorly fitted or top-dose-only effect; inactive = no such curve, though single readings can be large or run the other way;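 also: % of control where 0% means no effect; miR-21 action dims this reporter so a rising signal means less miR-21 action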
#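 Using DMEM plus 10% FBS, HeLa miR-21-FLuc cells are incubated with test compounds (final up to about 40uM) for 48 hours; firefly luciferase signal is then imaged following reagent-mediated lysis.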
# Rango-impB inh – prevents formation of the Rango-importin beta complex. Q14974. Potency, µM (highest dose often 92.2 µM), without a hit: at the top dose inhibition of complex formation. Rango CFP/YFP FRET sensor + importin beta, 45 min. AID 540263. 340,000 compounds, 0.031% hits; active = rising FRET ratio curve, often small or poorly fitted; inconclusive = mostly compound fluorescence or quenching in the first reads; inactive = flat curves in all reads;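 also: potency is read from the fitted curve at half-maximal effect; 0% = DMSO wells and 100% = buffer wells lacking importin beta; nearly all actives have a fitted effect of over 15% in size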
# Target sequence (Q14974 whole entry, looked up): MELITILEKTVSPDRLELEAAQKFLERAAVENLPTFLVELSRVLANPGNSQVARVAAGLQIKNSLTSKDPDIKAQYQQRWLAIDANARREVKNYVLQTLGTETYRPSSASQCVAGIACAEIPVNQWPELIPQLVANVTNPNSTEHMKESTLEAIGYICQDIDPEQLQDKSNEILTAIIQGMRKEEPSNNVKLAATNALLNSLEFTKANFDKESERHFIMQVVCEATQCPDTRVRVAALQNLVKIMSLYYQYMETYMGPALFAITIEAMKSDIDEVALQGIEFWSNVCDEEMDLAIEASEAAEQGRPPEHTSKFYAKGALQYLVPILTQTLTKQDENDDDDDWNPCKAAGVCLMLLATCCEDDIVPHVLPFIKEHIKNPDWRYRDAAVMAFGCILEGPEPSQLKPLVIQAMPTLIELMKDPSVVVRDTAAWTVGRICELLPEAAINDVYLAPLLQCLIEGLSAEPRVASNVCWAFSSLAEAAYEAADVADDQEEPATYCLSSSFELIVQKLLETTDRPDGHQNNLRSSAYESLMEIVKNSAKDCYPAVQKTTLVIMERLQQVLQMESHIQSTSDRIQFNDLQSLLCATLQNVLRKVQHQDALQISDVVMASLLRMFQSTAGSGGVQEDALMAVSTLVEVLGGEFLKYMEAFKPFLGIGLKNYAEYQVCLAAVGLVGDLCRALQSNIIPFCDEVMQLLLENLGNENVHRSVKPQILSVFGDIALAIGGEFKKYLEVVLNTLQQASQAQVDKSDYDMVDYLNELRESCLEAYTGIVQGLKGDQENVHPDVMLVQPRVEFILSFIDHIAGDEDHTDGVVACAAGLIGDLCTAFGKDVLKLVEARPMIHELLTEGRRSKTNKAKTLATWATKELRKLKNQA
#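 FRET biosensor (snurportin 1 IBB flanked by EYFP and cerulean), 50 nM, with compound 5 min, then 0.125 microM importin beta in PBS, 1 mM DTT, 0.02% Tween-20, 0.1% BSA. CFP/YFP ratio read after 45 min at room temperature; pre-read flags interference.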
# Rango release inh – inhibitors of RanGTP-induced Rango-importin beta complex dissociation; Biochemical FRET Rango-importin beta, RanGTP-induced dissociation; 340,000 compounds, 0.071% hits; AID 540253; Potency, µM (doses to about 46.1 µM), inactives show top-dose activity change, negative = inhibition; O95149+P62826; active means falling FRET ratio curve, often poorly fitted, with flat reads before Ran was added; inconclusive means other falling curves, or compound fluorescence or quenching; inactive means flat or rising ratio curve;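 also: potency is read from the fitted curve at half-maximal effect; % of control where 0% means no effect; nearly all actives have a fitted effect of over 45% in size; -100% = wells without RanGTP and RCC1; the record marks most hits as doubtful in a second field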
#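 Compounds preincubate 5 min with complex of recombinant Rango and importin beta in PBS with 1 mM DTT. Ran (0.6 uM) loaded with 2 mM GTP plus 0.2 uM RCC1 starts dissociation; FRET is recorded 45 min later.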
# * hit, by the source's call; u = inconclusive; x = not tested or not shown; & = joins results of further samples. The list is partial. The share of hits here may be higher or lower than overall.
SMILES,GLA inh pH 4.5,miR-21 reporter,Rango-impB inh,Rango release inh
O=C(NNc1ccc([N+](=O)[O-])cc1)C1C2CCCCC21 (stereo not given),-12,-21%,u,15%
O=C(O)c1ccc(/C=N/Nc2ncc(Cl)cc2Cl)cc1,x,-31%,-0.8%,-10%
CC(=O)Nc1cc2c(cc1C(C)=O)OCCO2,-3,1%,-1.2%,-15%
CCOC(=O)NC(=S)Nc1ccc(OC)cc1,8,-36%,-0.4%,2%
CCC1=[N+](C)CCn2c(C)ccc21,4,1%,-4.2%,-10%
COC(=O)CN1C(=O)[C@H]2[C@@H](c3ccc(C)o3)N3C(=O)CN(CCO)C(=O)[C@@]3(Cc3ccccc3)[C@H]2C1=O,x,2%,2.4%,-1%
Cc1ccccc1OCC(=O)NNC(=O)c1ccc2c(=O)n3c(nc2c1)CCC3,x,x,1.0%,0%
CCOC(=O)Cc1csc(NC(=O)CSc2nnc(C(C)C)n2C)n1,4,1%,-0.9%,23%
O=C(NCCC1CCCCN1S(=O)(=O)c1cccs1)C(=O)Nc1ccccc1 (stereo not given),x,x,-0.6%,2%
COc1ccc(NC(=O)C(C)N2C(=O)c3ccccc3C2=O)c(OC)c1 (stereo not given),x,x,-4.2%,-13%
O=C(NCc1ccccn1)C(=O)NCC1OCCCN1S(=O)(=O)c1ccc(F)cc1 (stereo not given),x,0%,0.7%,3%
CCOC(=O)C1=C(C)N(C[C@@H]2CC[C@@H](Cc3ccc(-c4ccccc4)cc3)O2)C(=O)NC1c1cccc2ccccc12 (stereo not given in full),x,x,-0.6%,-25%

# Some of these compounds in order of formula weight, largest number first:
SMILES,GLA inh pH 4.5,miR-21 reporter,Rango-impB inh,Rango release inh
CCOC(=O)C1=C(C)N(C[C@@H]2CC[C@@H](Cc3ccc(-c4ccccc4)cc3)O2)C(=O)NC1c1cccc2ccccc12 (stereo not given in full),x,x,-0.6%,-25%
COC(=O)CN1C(=O)[C@H]2[C@@H](c3ccc(C)o3)N3C(=O)CN(CCO)C(=O)[C@@]3(Cc3ccccc3)[C@H]2C1=O,x,2%,2.4%,-1%
O=C(NCc1ccccn1)C(=O)NCC1OCCCN1S(=O)(=O)c1ccc(F)cc1 (stereo not given),x,0%,0.7%,3%
Cc1ccccc1OCC(=O)NNC(=O)c1ccc2c(=O)n3c(nc2c1)CCC3,x,x,1.0%,0%
O=C(O)c1ccc(/C=N/Nc2ncc(Cl)cc2Cl)cc1,x,-31%,-0.8%,-10%
CC(=O)Nc1cc2c(cc1C(C)=O)OCCO2,-3,1%,-1.2%,-15%

# (next part)
SMILES,GLA inh pH 4.5,miR-21 reporter,Rango-impB inh,Rango release inh
O=C(CCc1nc2ccccc2c(=O)[nH]1)Nc1nnc(SCc2ccc(Cl)cc2)s1,x,x,u,-17%
CC(C)Cn1c(=S)[nH]c2cc(C(=O)O)ccc2c1=O,4,-2%,-1.4%,-17%
Cc1ccccc1NC(=O)CNC(=O)Cc1cccc2ccccc12,x,x,-1.8%,-13%
O=S(=O)(c1ccc(F)c(F)c1)N1CCCc2ccccc21,x,-9%,1.8%,4%
CC(C)(C)NS(=O)(=O)c1ccc(NS(C)(=O)=O)cc1,7,-1%,1.2%,28%
CSCCC(=O)N1CC[C@@H](N2CCN(c3ccccc3F)CC2)[C@H](O)C1,x,-6%,-1.7%,14%
CC(=O)Nc1ccc(S(=O)(=O)N(CCO)Cc2ccccc2)cc1,18,-1%,4.8%,3%
O=C(Nc1ccccc1)Nc1ccc(C(F)(F)F)cn1,-5,-43%,-2.5%,7%
COc1ccc(Br)cc1/C=N/NC(=O)C[n+]1ccccc1,x,10%,0.9%,0%
CCc1ccccc1NC(=O)C(Cc1cccc(OC)c1OC)c1nn[nH]n1 (stereo not given),7,-2%,1.4%,15%
CCc1ccc(OCCCC(=O)Nc2nccs2)cc1,3,-20%,-3.9%,0%
CC(=O)Nc1ccc(NC(=O)c2ccccc2Nc2ccccc2)cc1,x,-14%,-4.4%,u
Cc1cc(C)cc(NC(=O)C(C)N2C(=O)c3ccccc3C2=O)c1 (stereo not given),x,-3%,-1.0%,14%
Cc1cc(C)nc(NS(=O)(=O)c2ccc(NC(=O)COc3ccccc3)cc2)n1,0,-5%,-1.1%,-2%
CSc1ccc(Cl)c(C(=O)Nc2ccc(N3CCOCC3)cc2)c1,1,-17%,-0.6%,3%
CN(CC(=O)Nc1cccc(F)c1)C(=O)c1cc(S(=O)(=O)N(C)C)ccc1N1CCCC1,x,0%,-3.7%,3%
CN(c1ccccc1)S(=O)(=O)c1ccc(C(=O)NCc2ccccn2)cc1,-18,1%,0.4%,28%
CCc1c(C(=O)NNC(=S)NCC(C)C)csc1C,3,-8%,3.8%,-13%
CC(=O)Nc1ccc(NC(=O)CSc2ccc(-c3ccc4c(c3)OCO4)nn2)cc1,5,-28%,-3.3%,21%
Cc1nc(NCc2ccccc2)c(C(N)=O)c2c1COC(C)(C)C2,3,0%,3.4%,-5%
CCN(CC)C(=O)c1ccccc1NS(=O)(=O)c1cccs1,x,0%,9.1%,8%
C=CCn1c(SCC(=O)c2cc(C)n(Cc3cccs3)c2C)nnc1-c1ccncc1,-6,1%,-4.0%,4%
CCN1CCN(c2nc3c(C)cccn3c(=O)c2/C=C(\C#N)C(=O)NCCCOC)CC1,x,-5%,u,u
CCCn1nc(C(=O)NCc2ccc3c(c2)OCO3)c2ccccc2c1=O,1,3%,-2.4%,11%
COc1ccc(CC(=O)NNC(=O)CN(C)S(=O)(=O)c2ccc(Cl)cc2)cc1OC,x,x,3.3%,6%
O=C1CC2(CCN(C(=O)COc3ccc(Cl)cc3)CC2)Oc2ccccc21,x,x,3.2%,11%
Fc1ccccc1N1CCN(c2nnnn2-c2ccccc2)CC1,-1,-11%,-2.6%,15%
Cc1cc(N2CC(C(=O)NCc3cccnc3)CC2=O)ccc1C(C)C (stereo not given),16,1%,3.9%,-17%
CCc1cc2c(=O)c(-c3nc4ccccc4n3C)c(C)oc2cc1OC(C)=O,x,-2%,-0.9%,24%
NC(=S)N/N=C1\CC(n2nnnc2-c2ccccc2)C2COC1O2 (stereo not given),3,0%,0.0%,31%
CCOC(=O)/C=C1\SCC(=O)N1CC(=O)NC1CCCCC1,12,1%,5.5%,-6%
CCOc1ccccc1-n1nnnc1SCC(=O)OC,1,1%,-3.4%,2%
C=CCNC(=S)NC(=O)c1oc2ccccc2c1C,6,-32%,-0.3%,-1%
CC1CN(/C=C/C(=O)C(F)(F)F)CC(C)O1 (stereo not given),-12,3%,-3.7%,0%
Cc1ccc(NC(=O)CCN2C(=O)c3cccc([N+](=O)[O-])c3C2=O)c(Br)c1,x,-5%,2.3%,0%
Cc1ccc(S(=O)(=O)NCc2ccccn2)c(C)c1C,x,-1%,-2.4%,20%
CC(c1ccccc1)N(CCC(c1ccccc1)C1CCOC(C)(C)C1)C(=O)c1ccco1 (stereo not given),-8,24%,-0.7%,1%
CC1CCN(c2ccc(C(=O)O)cc2N)CC1,8,-7%,-1.6%,-3%
CCCCOc1ncnc2c1[nH]c1ccc(OCC)cc12,5,-14%,0.0%,-10%
O=C1C(Cc2ccccc2)Nc2ncnc(N3CCCCC3)c2N1Cc1ccc(Cl)cc1 (stereo not given),x,x,u,-6%
OCc1nc2ccccc2n1CCc1ccccc1,x,-19%,3.8%,-5%
CC(=O)c1ccc(OCc2cc(C(=O)N3CCN(c4ccccc4)CC3C)no2)cc1 (stereo not given),x,-34%,-2.4%,2%
Cc1ccc2nc(NC(=O)CSCC(=O)Nc3cc(C)on3)sc2c1,x,x,-2.1%,1%
COc1cc(Nc2nc(SCC#N)nc3ccccc23)cc(OC)c1OC,-2,-1%,0.2%,6%
O=C1CCC(C(=O)NCCN2C(=O)S/C(=C\c3cccnc3)C2=O)=NN1,1,0%,-0.6%,21%
CCn1cnc2sc(C(=O)Nc3ccccc3OC)c(C)c2c1=O,0,-12%,0.1%,-10%
CCCCSC(=S)N(C)C1CCS(=O)(=O)C1 (stereo not given),-21,-2%,3.2%,16%
CCOC(=O)/C(=N\Nc1cc(Cl)ccc1Cl)N1CCN(C)CC1,-13,-4%,-1.8%,-3%
CCCN1C(=O)C2(C(C(=O)c3ccc(C)o3)=C(O)C(=O)N2CCCN2CCOCC2)c2ccccc21 (stereo not given),-4,-2%,2.1%,5%
CC[C@]12c3[nH]c4ccccc4c3CCN1C(=O)C(CC(=O)NCCCN(C)C)C[C@@H]2C(=O)N1CCN(C(=O)c2ccco2)CC1 (stereo not given in full),x,x,-2.5%,-4%
O=C(CN1CCCCC1)Nc1ccccc1Cl,-2,-7%,-1.5%,-1%
O=C(ON=C1CCN(S(=O)(=O)c2ccccc2)CC1)c1ccc(F)cc1,-10,0%,1.5%,-5%
CC(Sc1nc2ccccc2[nH]1)C(=O)Nc1ccccc1F (stereo not given),-1,-4%,2.4%,-5%
Cc1cccc(NS(=O)(=O)c2ccc(-n3cccn3)cc2)c1C,x,11%&10%,-0.8%,1%
Cc1c(Cl)c([N+](=O)[O-])nn1CC(=O)NCc1cccs1,2,-8%,-0.3%,-6%
Cc1cccc([C@@H]2C[C@H]3CN(Cc4cccc(Cl)c4)C(=O)[C@]34CCCN24)n1,4,-1%,5.3%,-1%
COC(=O)[C@]1(C)N[C@H](CN(C)S(=O)(=O)c2ccccc2)[C@@H]2C(=O)N(C)C(=O)[C@@H]21,x,x,9.5%,-3%
O=C(Nc1ccccc1)Nc1ccc(-n2ccc(C(F)(F)F)n2)cc1,-3,-34%,-0.1%,-9%
CN(Cc1ccccc1)Cc1nc2scc(-c3ccccc3)c2c(=O)[nH]1,7,-2%,-1.4%,-7%
O=S(=O)(c1ccc(Cl)cc1)c1cnc2ccccc2n1,-1,29%,0.4%,12%

# 3 entries already listed, sorted by the value under Rango-impB inh, rising:
SMILES | Rango-impB inh
O=C(CN1CCCCC1)Nc1ccccc1Cl | -1.5%
O=S(=O)(c1ccc(Cl)cc1)c1cnc2ccccc2n1 | 0.4%
COC(=O)[C@]1(C)N[C@H](CN(C)S(=O)(=O)c2ccccc2)[C@@H]2C(=O)N(C)C(=O)[C@@H]21 | 9.5%

# The list continues.
SMILES,GLA inh pH 4.5,miR-21 reporter,Rango-impB inh,Rango release inh
CC(=O)c1ccc(OCCCC(=O)Nc2cc(S(=O)(=O)N(C)C)ccc2C)cc1,-5,-11%,-0.8%,-7%
Cc1nc(-c2ccc(C(=O)Nc3ccccc3F)cc2)cs1,-22,21%,-0.7%,-7%
CCCCCC(=O)N1CC2(CC(c3cccc(NC(=O)c4ccccc4)c3)=NO2)C[C@@H]1C(N)=O (stereo not given in full),-6,13%,u,24%
CCOC(=O)c1cnn(-c2ccccc2)c1N,8,-24%,4.8%,0%
Cc1nc(SCC(=O)NC(C)c2ccccc2)c2oc3ccccc3c2n1 (stereo not given),3,-3%,-2.9%,-1%
Cn1c2c(c(=O)n(C)c1=O)C(NS(=O)(=O)c1ccccc1)(C(F)(F)F)C(=O)N2 (stereo not given),9,-1%,0.0%,0%
Cc1ccc(NS(=O)(=O)c2ccc(NC(=O)C3CCCO3)cc2)cc1 (stereo not given),-6,8%,0.1%,9%
CCC(=O)c1ccc(OCC(O)CN2C(=O)NC(C)(C)C2=O)cc1 (stereo not given),0,-1%,0.1%,16%
Cc1cc(C)cc(NC(=O)C(OC(=O)c2cccs2)c2ccccc2)c1 (stereo not given),-1,1%,2.0%,-24%
CCN1CCN(CCNC(=O)c2ccc(CS(=O)c3ccc(Cl)cc3)o2)CC1 (stereo not given),x,1%,-1.5%,17%
CC(=O)c1ccc(N2CCN(C(=S)Nc3ccccc3F)CC2)cc1,8,-2%,-0.5%,-6%
C[C@@H]1CN(C(=O)c2nc3ccc(Cl)cn3c2CN2CCc3sccc3C2)C[C@H](C)O1,6,-4%,-3.7%,-6%
CN(C(=O)c1cccc(NC(=O)Cc2cccc(NC(=O)C3CCCN(C(=O)C4CC4)C3)c2)c1)C1CCC1 (stereo not given),x,x,2.6%,9%
CCN(CC)c1ccc(C(=S)N2CCN(c3ccccc3)CC2)cc1,-7,-5%,11%,1%
Cc1ccc(N2CC(C(=O)NCc3ccc4c(c3)OCO4)CC2=O)cc1C (stereo not given),-1,-1%,-3.0%,0%
COCc1cc(C)[nH]c(=O)c1C(=O)NC12CC3CC(CC(C3)C1)C2,-3,21%,-4.1%,-11%
